Screening results: PubChem, National Center for Advancing Translational Sciences (NCATS)
Sfp PPTase inh: Sfp phosphopantetheinyl transferase inhibition. actives 3.5% (n = 310,000). Q9F4F7. Biochemical Sfp PPTase activity, qHTS. AID 1490. Potency, µM, inactives show max response, negative = inhibition, most hits filed as inhibitors; active means well fitted inhibition curve with a large enough effect; inconclusive means small, poorly fitted or top-dose-only effect, or another doubt; inactive means no such curve, though single readings can be large or run the other way;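 further: the enzyme is Sfp with the accession as filed and its product quenches rhodamine fluorescence; potency means the concentration at half of the fitted maximal effect; 0% = enzyme reaction without inhibitor and -100% = no enzyme wells; top concentration of the series not given in the record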
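Fluorescence-quenching assay with 15 nM Sfp, 5 uM rhodamine-CoA and 12.5 uM BHQ-2-labelled ybbR peptide in pH 7.6 Hepes/MgCl2 buffer. Enzyme was pre-incubated with compound for 15 min at room temperature. Rate was taken from the 30-min fluorescence change (525/598 nm).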
Menin MLL FP FL: menin-MLL binding inhibition, fluorescein peptide; Fluorescence polarization, fluorescein-MLL peptide displacement from menin; FP activity change, % at 61.4 µM; 290,000 tested, under 10 active; inconclusive = falling polarisation curve, or a change in total fluorescence; inactive = total fluorescence flat and polarisation flat or rising; no compound was filed as active; the % refers to the polarisation; negative = inhibition;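 further: % of control where 0% means no effect; inhibitors lower the polarisation; unlabelled MLL peptide was the positive control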
ClpP mod: qHTS Assay for Activators of ClpP; ATP-dependent Clp protease proteolytic subunit (Bacillus subtilis (strain 168)), P80244; purified B. subtilis ClpP, FRET peptide cleavage, 20 min; Potency, µM (top dose mostly 57.5 µM), without a hit: top-dose activity change, negative = active; actives 1.9% (n = 340,000); active = well fitted falling curve with a large enough effect; inconclusive = small, poorly fitted or top-dose-only effect; inactive = no such curve, though single readings can be large or run the other way; further: potency means the concentration at half of the fitted maximal effect; the source files actives as falling curves though it sought activators and does not explain the sign; nearly all actives have a fitted effect of over 65% in size; many hits overshoot -100%
Target sequence (P80244 whole entry, looked up): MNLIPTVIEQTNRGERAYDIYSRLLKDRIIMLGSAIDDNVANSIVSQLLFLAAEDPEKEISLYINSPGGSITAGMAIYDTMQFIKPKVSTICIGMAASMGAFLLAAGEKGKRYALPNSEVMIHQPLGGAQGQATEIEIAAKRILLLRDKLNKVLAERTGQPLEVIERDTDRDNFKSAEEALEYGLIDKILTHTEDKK
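FRET quenching reversal measured ClpP activation: 10 microg/mL B. subtilis ClpP at pH 8 with the FRET-FV decapeptide, read at 430 nm after 320 nm excitation. The 20-min minus 0-min signal was scaled between DMSO/no-enzyme wells and ADEP (5.8 microM final).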
gsp agonist: gsp mutant agonism; AID 624287; gsp mutant cells, cAMP HTRF, 30 min; control for the full effect not named in the record; Potency, µM (highest dose often 76.9 µM), inactives show at the highest dose activation (cAMP increase), usual class: activators; actives 0.13% (n = 340,000); active = well fitted activation curve with a large enough effect; inconclusive = small, poorly fitted or top-dose-only effect, or another doubt; inactive = no such curve, though single readings can be large or run the other way; cell line not stated here;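 further: phosphodiesterase inhibitor Ro 20-1724 added with compounds to block cAMP breakdown; potency means the concentration at half of the fitted maximal effect; nearly all actives have a fitted effect of over 60% in size; about a fifth of the inactives were tested at one dose only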
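Cells in DMEM/10% FBS with G418 were pretreated with compounds in DMSO plus […] (300 uM stock) for 30 min at 37C. cAMP was measured by HTRF (cAMP-d2 plus anti-cAMP antibody-K) after 30 min at room temperature.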
gsp antagonist: antagonists of gsp mutant (McCune-Albright syndrome); gsp-mutant cells, cAMP HTRF, 30 min; control for the full effect not named in the record; AID 624288; actives 0.4% (n = 340,000); Potency, µM (top dose mostly 76.9 µM), for inactives: at the top dose activity change, negative = inhibition, hits mostly inhibitors; active = falling curve of any shape with a large fitted effect; inconclusive = falling curve, mostly with a smaller effect; inactive = flat or rising curve; cell line not stated here;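 further: intracellular cAMP measured with PDE inhibitor Ro 20-1724 present during compound exposure; potency means the concentration at half of the fitted maximal effect; on the % scale 0 is the no-effect control and ±100 the full control effect; nearly all actives have a fitted effect of over 65% in size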
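HTRF cAMP read-out (cAMP-d2 plus anti-cAMP antibody-K in lysis buffer, 30 min RT). Before lysis, cells are exposed to compounds with […] for 30 min at 37C in DPBS containing Ca/Mg, BSA and Tween 20.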
D2 agonist: activates the human D2 dopamine receptor; P14416; DiscoveRx PathHunter D2 beta-arrestin, luminescence, 90 min; 100% = 57 uM dopamine signal; activation, % (no concentration beside the values); actives 0.084% (n = 360,000); AID 624465; in the data active = activation above about 40%; inconclusive = about 15% to 40%; inactive = below about 15%; further: compound concentration not given in the record; the text of the record calls up to 30% inactive
Target sequence (P14416 whole entry, looked up): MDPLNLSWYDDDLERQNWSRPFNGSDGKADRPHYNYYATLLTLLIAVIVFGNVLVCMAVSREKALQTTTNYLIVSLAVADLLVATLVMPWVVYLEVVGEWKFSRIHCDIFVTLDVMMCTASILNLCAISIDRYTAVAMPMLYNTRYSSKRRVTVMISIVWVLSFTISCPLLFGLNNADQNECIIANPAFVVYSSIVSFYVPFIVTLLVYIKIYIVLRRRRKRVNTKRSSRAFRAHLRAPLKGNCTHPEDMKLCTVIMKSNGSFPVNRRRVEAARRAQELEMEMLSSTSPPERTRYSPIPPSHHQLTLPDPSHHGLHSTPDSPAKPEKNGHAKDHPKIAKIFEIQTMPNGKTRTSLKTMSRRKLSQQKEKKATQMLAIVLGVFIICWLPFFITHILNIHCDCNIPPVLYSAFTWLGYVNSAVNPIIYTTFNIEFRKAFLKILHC
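DiscoveRx PathHunter D2 beta-arrestin cells (2,100/well) attached overnight, then compound-stimulated 90 min at 37 C in HBSS/10 mM HEPES/0.1% Tween-20 buffer; beta-galactosidase complementation read by luminescence after 1 h at ambient temperature. Dopamine 57 uM final (EC100) as control.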
PINK1 modulator: modulators of PINK1 expression. actives 0.2% (n = 410,000). Potency, µM (titrated, usually from 76.6 µM), for the others: at the top dose activation (PINK1 increase), most hits filed as activators. AID 624263. PINK1 immunofluorescence, high-content cytometry, 24 h; active = well fitted activation curve with a large enough effect; inconclusive = small, poorly fitted or top-dose-only effect; inactive = flat fitted curve, though single readings scatter; cell line not stated here;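 further: potency means the concentration at half of the fitted maximal effect; % of control where 0% means no effect; nearly all actives have a fitted effect of over 65% in size; a mitochondrial uncoupler was the plate control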
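Decision-based qHTS: stable cells, 24 h exposure to five compound concentrations, CCCP as control. Fixed cells stained for PINK1 plus nuclear, mitochondrial and cell markers, cytometer read.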
* marks the source's active call; other numbers are inactive results; ? = inconclusive; . = no result given; [ ] = remark or other dose.

# | canonical_smiles | Sfp PPTase inh | Menin MLL FP FL | ClpP mod | gsp agonist | gsp antagonist | D2 agonist | PINK1 modulator
1 | Cc1ccccc1-c1nc(CN2CCC(C(=O)NCC3CCCO3)CC2)c(C)o1 (configuration not stated) | 3% | 2.7 | -1.2% | -3% | 8% | -2.2 | -1.8%
2 | COc1ccc(-c2nnc(-c3cccnc3)o2)cc1OC | 15% | 1.9 | -12% | 13% | 2% | -1.5 | 1.2%[38.3 µM]
3 | CN(Cc1ccccc1)c1nnc(N)s1 | 6% | -1.3 | 0.4% | 16% | 8% | 3.5 | 4.3%
4 | COc1ccc(S(=O)(=O)N2CCOC2CNC(=O)C(=O)NCc2ccco2)cc1 (configuration not stated) | 25% | 1.2 | . | -6%[15.4 µM] | 6% | -1.2 | 3.1%
5 | CCOc1ccc(CCNC(=O)C2CCCN(c3nnc(-n4cccc4)s3)C2)cc1OCC (configuration not stated) | 15% | 2.3 | -0.1% | 0% | 4% | -1.7 | -1.5%
6 | CC(=O)Nc1nc2ccc(S(=O)(=O)N3CCCCC3)cc2s1 | 7% | . | 0.5% | 1% | 1% | -4.0 | 1.0%
7 | COc1ccccc1-c1cn[nH]c1-c1ccc(OCc2ccc([N+](=O)[O-])cc2)cc1O | 15% | 5.7 | . | -10%[15.4 µM] | 3% | -1.6 | 9.6%
8 | CCOc1ccc(CCNS(=O)(=O)c2ccc(-c3ccc(=O)[nH]n3)o2)cc1OCC | 6% | 3.4 | 0.0% | -3% | -7% | 3.2 | 0.8%
9 | COc1ccc(C(=O)NCCN2CCCC2)cc1 | 6% | -0.4 | -0.2% | 1%[15.4 µM] | 7% | -2.3 | -0.4%
10 | Cn1c(=O)oc2cc(S(=O)(=O)NC3CCCc4ccccc43)ccc21 (configuration not stated) | 3% | 2.3 | -0.3% | -68%[inhibitor] | 3% | -3.2 | 11%
11 | CN(C)c1ccc(/C=N/NC(=O)CSc2ccccn2)cc1 | -2% | -3.9 | . | -5%[15.4 µM] | -14% | -0.9 | 2.0%
12 | CC(=O)C1=C(O)C(=O)N(Cc2cccnc2)C1c1ccc(C(C)C)cc1 (configuration not stated) | 13% | 1.1 | . | ? | 9% | -2.0 | -1.0%
13 | Cc1cc(C)nc(SCc2nnc(SCC(=O)N3CCCc4ccccc43)o2)n1 | 9% | 1.3 | 0.0% | 9% | -3% | 1.4 | 4.3%[38.3 µM]
14 | Cn1c(=O)n(C)c2cc(N3CCCCC3)c(NC(=O)c3cccc(Cl)c3)cc21 | -5% | . | -8.1% | -3% | -3% | -3.0 | 0.1%
15 | CC(=O)Nc1sc(C)c(C)c1CN1CCN(S(=O)(=O)c2ccccc2)CC1 | -23% | -3.3 | -0.2% | 3% | -37% | -4.2 | -0.6%
16 | COc1ccccc1NC(=O)c1ccc(NC(=O)c2cc3c(s2)CCC3)cc1 | 20% | 2.6 | ? | -22% | -19% | 0.9 | -0.5%
17 | COC(=O)c1oc2ccc(Br)cc2c1NC(=O)CCN1CCOCC1 | 13% | -0.8 | -3.3% | 26% | 8% | -0.4 | -0.5%
18 | O=C(/C=C/c1ccc(Cl)cc1)NCc1cccs1 | -2% | 5.0 | -1.7% | 13% | -5% | -2.2 | 2.8%
19 | NC(CO)c1csc(Nc2ccc(C(F)(F)F)cn2)n1 (configuration not stated) | . | . | -0.2% | . | . | -2.3 | -0.1%
20 | O=C(CSc1ccc(Br)cc1)Nc1ccccc1N1CCOCC1 | -6% | . | -2.3% | 3% | -4% | 4.1 | 0.6%
21 | CN(c1cccnc1)c1ncnc2[nH]ncc12 | 4% | 2.5 | . | 9%[15.4 µM] | 5% | 0.1 | -0.1%
22 | COc1ccc([N+](=O)[O-])cc1NC(=O)Nc1cccc(Cl)c1 | 2% | 3.6 | 0.8% | -16% | -36% | -6.8 | 26%
23 | O=C(NCc1ccco1)c1ccc(CS(=O)Cc2ccc(Cl)cc2)o1 (configuration not stated) | 21% | . | 1.2% | 34% | 6% | 1.9 | 0.0%
24 | Cc1csc(NC(=O)CCN2C(=O)c3ccccc3S2(=O)=O)n1 | 21% | -0.6 | 1.6% | -14% | 5% | 0.0 | .
25 | O=C(c1cc(-c2ccc(O)cc2)on1)N1CCCc2ccccc21 | 4% | 4.5 | -0.2% | -45%[inhibitor] | 2% | 0.4 | 1.2%
26 | Nc1nc(N2CCOCC2)n[nH]1 | 14% | -6.8 | . | 19% | 12% | -4.3 | -0.8%
27 | COC(=O)c1cc(OC)c(OC)cc1NC(=S)N1CCN(C/C=C/c2ccccc2)CC1 | -10% | 7.0 | 1.1% | -7%[15.4 µM] | -6% | -2.4 | -0.7%
28 | COC(=O)Cc1ccc(OC(=O)CCS(=O)(=O)c2ccc(Cl)cc2)cc1 | . | . | -15% | 9% | -8% | -0.8 | 2.5%
29 | COc1cc(NC(=O)COn2nnc3ccc(S(C)(=O)=O)cc32)cc(OC)c1 | 18% | -0.7 | 0.1% | -3%[15.4 µM] | 2% | -1.8 | 1.5%
30 | CCOc1ccc(C2NC(=O)NC(C)=C2C(=O)OC)cc1C (configuration not stated) | 11% | -0.4 | 1.8% | -108%[inhibitor] | -3% | -1.5 | 1.3%
31 | O=C(NCN1CCc2ccccc2C1)c1cnccn1 | 3% | -0.5 | -5.7% | -1% | 1% | -4.9 | 18%[38.3 µM]
32 | Cc1ccc(NC(=O)c2cc3ccccc3o2)nc1 | . | . | . | -6%[15.4 µM] | 5% | 0.6 | 1.1%
33 | Cc1cccc(-n2c(C)cc(C)c(C#N)c2=O)c1 | 10% | -2.1 | . | 6%[15.4 µM] | 6% | -6.4 | -0.4%
34 | CC(C)(C)C1CCNC(=O)CC1 (configuration not stated) | . | . | -0.1% | 18% | . | -2.7 | -0.4%
35 | CSc1ncc2c(=O)[nH]c(-c3ccccc3)nc2n1 | 13% | 2.5 | . | -37%[inhibitor] | 0% | -1.5 | 1.6%
36 | CCC(=O)c1ccc(N2CCN(C(=O)c3ccc(F)cc3)CC2)c(F)c1 | 18% | -2.2 | . | 12% | -4% | 3.9 | 0.9%
37 | Cc1ccc(-c2noc(=O)n2CC(=O)Nc2ccc(S(=O)(=O)NC3CC3)cc2)cc1 | -17% | -1.3 | -0.2% | 3% | 3% | 9.9 | -4.7%[38.3 µM]
38 | Cc1ccccc1-c1nnc(Cc2ccccc2)o1 | 4% | 3.0 | 1.3% | 2% | 0% | -3.9 | 3.1%
39 | Cc1ccc(NC(=O)c2c(C(F)(F)F)nn(C)c2Cl)cc1C | 13% | 1.6 | 1.9% | ? | -1% | -2.0 | 5.7%[38.3 µM]
40 | O=C(CN(C1CCCCC1)S(=O)(=O)c1ccc(F)cc1)NCCCO | 1% | 0.1 | -1.8% | -6% | 3% | -1.9 | ?
41 | COC(=O)[C@H](Cc1c[nH]c2ccccc12)NC(=O)NCc1ccc(OC)c(OC)c1 | 3% | -17 | -3.8% | 0% | -3% | -0.8 | 0.1%
42 | COC(=O)c1sc(NC(=O)CSc2n[nH]c(N)n2)c(C(=O)OC)c1C | -4% | 7.4 | -4.3% | ? | -31% | 5.4 | 0.0%
43 | O=C(c1coc2ccc(O)cc12)C1CC1 | 13% | 1.4 | 0.3% | -13% | 10% | -0.3 | -0.4%
44 | CC1(C)CC(=O)C2=C(C1)N=C1SCCC(=O)N1C2c1ccc(C(F)(F)F)cc1 (configuration not stated) | 5% | 1.7 | 4.5% | -23% | -4% | 0.4 | 13%[38.3 µM]
45 | CCn1cc(/C=N/NS(=O)(=O)c2ccc(C)cc2)c(C)n1 | -15% | 4.0 | -2.9% | -7% | 7% | 6.7 | -0.9%
46 | COc1cccc(NC(=O)c2ccc(NS(=O)(=O)c3cccs3)cc2)c1 | . | . | -0.1% | -22% | -28% | -3.6 | 1.3%
47 | Cc1cnc(C(=O)OCc2ccc(COC(=O)c3cnc(C)cn3)cc2)cn1 | -3% | -0.6 | . | -11% | -5% | 1.0 | -0.2%
48 | CSCCC(NS(=O)(=O)c1ccc(C)cc1)C(=O)N1CCCCCCC1 (configuration not stated) | . | . | 1.7% | -19% | 13% | 1.2 | 5.7%

Part of the list above, screen by screen:
[18] O=C(/C=C/c1ccc(Cl)cc1)NCc1cccs1
[31] O=C(NCN1CCc2ccccc2C1)c1cnccn1

Screen / compound no.	18	31
Sfp PPTase inh	-2%	3%
Menin MLL FP FL	5.0	-0.5
ClpP mod	-1.7%	-5.7%
gsp agonist	13%	-1%
gsp antagonist	-5%	1%
D2 agonist	-2.2	-4.9
PINK1 modulator	2.8%	18%[38.3 µM]

Molecules from the list above with bromine:
# | canonical_smiles | Sfp PPTase inh | Menin MLL FP FL | ClpP mod | gsp agonist | gsp antagonist | D2 agonist | PINK1 modulator
17 | COC(=O)c1oc2ccc(Br)cc2c1NC(=O)CCN1CCOCC1 | 13% | -0.8 | -3.3% | 26% | 8% | -0.4 | -0.5%
20 | O=C(CSc1ccc(Br)cc1)Nc1ccccc1N1CCOCC1 | -6% | . | -2.3% | 3% | -4% | 4.1 | 0.6%
